Sa helicase inh: S. aureus DNA helicase inhibition | purified S. aureus helicase, fluorescence unwinding assay; about half of the hits fall short of the stated cut | inhibition, %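 (tested at about 80 µM)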 | 120,000 compounds, 0.05% hits | AID 485395;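 active = both duplicates at 50% or more, or one of them with a favoured structure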;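 also: 0% = mean of negative control wells and 100% = mean of positive control wells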
MgrA-DNA mod: alters Staphylococcus aureus MgrA binding to DNA; AID 602314; fluorescence polarization; inhibition, %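 (about 10 µg/mL by stock and volumes)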; 84,000 compounds, 0.13% hits;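 active = above 50% in either of two replicates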;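 also: 0% = protein plus DNA without compound and 100% = DNA alone without protein; higher means less MgrA bound to DNA so lower polarization; one replicate is shown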
The depositor's hits bear a star; . = no result given; & = joins results of further samples. The list is partial. The share of hits here may be higher or lower than overall.

Sa helicase inh	MgrA-DNA mod	SMILES
-2	2.0	O=C1CC(N(C(=O)c2ccco2)c2cccc(Cl)c2)C(=O)N1c1cccc(Cl)c1 (stereo unspecified)
2	.	O=C(Cn1cnc2ccccc21)OCC(=O)c1ccc(Cl)s1
-12	-0.1	CC1(C)CC(NC(=S)NC2CC2)CC(C)(C)N1
-12	.	CC1(C)CC(NC2=NCCCCC2)CC(C)(C)N1
4	-3.0	CCS(=O)(=O)N1CCN(Cc2ccccc2)CC1
7	.	O=C1CC2(CCN(C(=O)/C=C\c3ccccc3)CC2)Oc2ccccc21
14	-2.0	CCNS(=O)(=O)c1ccc(CCC(=O)N2CCCCC2)cc1
29	.	C=C(C)n1c(=O)n(Cc2ccccc2C)c2ccccc21
-29	.	CCN(CC)S(=O)(=O)c1c[nH]c(C(=O)OC)c1
16	-4.6	N#Cc1ccsc1NC(=O)C1C2C=CC(C2)C1C(=O)O (stereo unspecified)
.	0.0	CN(C)/C=N/c1nnc(SCC(=O)c2ccc(F)cc2)s1
-12	.	Cc1ccc2c(c1)N(C(=O)CSc1nc3ncccc3[nH]1)CCO2
-14	.	N#Cc1nc(Cl)ccc1Cl
.	2.8	Cc1noc(C)c1NC(N)=O
-10	.	CCOc1ccc(S(=O)(=O)N2CCN(C(=O)c3sccc3C)CC2)cc1
13	.	Cc1cc(C)cc(N(CC(=O)NC2CCCc3ccccc32)S(=O)(=O)c2c(C)[nH]c(=O)[nH]c2=O)c1 (stereo unspecified)
.	-0.3	CCOC(=O)c1ccc(NC(=O)CN2C(=O)S/C(=C/c3ccccc3)C2=O)cc1
2	0.6	O=C(NCCSc1nnnn1-c1ccccc1)c1ccccc1
9	0.0	O=C(O)CCC1COc2ccccc2O1 (stereo unspecified)
5	3.9	COC(=O)Cc1nc(-c2cccs2)no1
.	3.0	O=C(Nc1ccc2nonc2c1)N1CCOCC1
18	-0.6	O=C(CSc1c(-c2ccccc2)c2cc(Cl)ccc2[nH]c1=O)NCc1ccco1
10	-2.0	CCC(c1ccc(F)cc1)n1cc(C(=O)NCCc2ccco2)nn1 (stereo unspecified)
-3	0.8	COc1ccc(/C=C(/C#N)c2ccc(Cl)cc2)cc1OC
2	-0.1	CC(C)N1C(=O)C(C#N)C2(CCNCC2)C(C#N)=C1S (stereo unspecified)
-1	6.6	O=C(COC(=O)C1CC2C=CC1C2)NCc1ccco1 (stereo unspecified)
14	.	Cn1nnnc1SCC(=O)N1CC2(C)CC1CC(C)(C)C2 (stereo unspecified)
-1	.	O=C(O)c1ccccc1-c1nc2ccccc2[nH]1
9	0.1	O=C(CC12CC3CC(CC(C3)C1)C2)Nc1ccc2[nH]c(=O)[nH]c2c1
-19	.	O=C(NCCO)C1=C(N2CCOCC2)/C(=C\c2ccccc2)CC1
18	0.6	CCn1cc(C(=O)O)c(=O)c2cc(F)c(N3CCN(C(=S)Nc4ccc5c(c4)OCO5)CC3)cc21
7	1.2	COc1ccc(-c2nnn(CCC(=O)O)n2)cc1
-3	.	COC(=O)CC1Oc2ccccc2N(Cc2ccccc2)C1=O (stereo unspecified)
19	.	CC1(C)C/C(=N/O)c2ccoc2C1
-22	.	CSc1ccccc1NC(=O)CN1CCc2ccccc21
11	.	CC(=NCc1cccnc1)C1=C(O)c2ccccc2C1=O
-18	.	CN(Cc1nc2ccccc2n1C)C(=O)c1ccc(Cl)cc1
2	0.9	CCN(C(=O)c1cccs1)c1ccccc1
.	0.5	Cc1csc(NC(=O)CSc2ccc(Cl)cc2)c1C(N)=O
-7	.	NC(=O)CSc1ccccc1NC(=O)c1cc(-c2cccs2)nn1-c1ccccc1
-5	.	Cc1cc(C(=O)N/N=C/C(C)(C)C)nn1C
11	-1.0	CC1CCN(c2nc(Cc3ccc(Cl)cc3Cl)nc3c2nnn3C)CC1
.	3.9	Nc1ccccc1Sc1nccc(C(F)(F)F)n1
3	.	O=C(Cc1ccccc1)Nc1c(C(=O)N2CCCC2)oc2ccccc12
-20	2.4	O=C(COC(=O)Cc1ccsc1)Nc1ccccc1C(F)(F)F
.	-2.7	COc1cccc2sc(NC(=O)c3ccc(S(=O)(=O)N4CC(C)CC(C)C4)cc3)nc12 (stereo unspecified)
9	.	O=C(CN1CCC(c2nc3ccccc3[nH]2)CC1)N1CCCCC1
-8	.	ClC1(Cl)CC1Cn1cnc2ccccc21 (stereo unspecified)
15	-3.1	Oc1ccccc1CNc1cnc2ccccc2c1
4	.	CCN(CC)C(=S)N=P(c1ccccc1)(N1CCOCC1)N1CCOCC1
.	-0.9	CCCN(CCC)S(=O)(=O)c1ccc(C(=O)Nc2ccc(F)cc2F)cc1
11	1.4	Cc1ccc(N2CC(C(=O)O)CC2=O)cc1C (stereo unspecified)
6	0.6	CSc1nc(-n2nc(C)cc2C)c2c3c(sc2n1)COC(C)(C)C3
.	-0.4	COc1cccc(NC(=S)NC2CC(C)CC(C)(C)C2)c1 (stereo unspecified)
6	2.2	CC(C)CCNC(=O)c1cc2c(s1)CSC2
4	-0.1	COC(=O)CSc1nc2cc(OC)c(OC)cc2cc1C
26	.	CC(C(=O)N1CCCC1)N1CCN(S(=O)(=O)c2cccs2)CC1 (stereo unspecified)
-9	.	N#Cc1ccsc1NC(=O)C1CC1
10	.	C#CCSc1nnc2[nH]c(=O)cc(CCC)n12
16	1.3	CC(=O)Nc1ccccc1N1CCN(S(C)(=O)=O)CC1

(further entries)
Sa helicase inh	MgrA-DNA mod	SMILES
-5	.	CCCCNC(=O)C12CCC(C)(C(=O)C1)C2(C)C (stereo unspecified)
-1	2.3	COc1cc(OC)c2c(C)cc(=O)oc2c1
.	0.3	O=C(Nc1ccc(S(=O)(=O)NC23CC4CC(CC(C4)C2)C3)cc1)C1CC1
-12	-2.4	Cc1ccc(C(=O)NCC(=O)O)cc1C
12	3.8	Cc1cc(C)cc(N2C(N)=NC(N)=NC2c2cccc(Cl)c2)c1 (stereo unspecified)
22	0.2	O=C(NCc1cccs1)c1cc(Br)cs1
11	.	CC1CCCC(C)N1C(=O)Cn1c(=O)sc2ccccc21 (stereo unspecified)
-85	-7.9	Oc1ccc(C=Nc2ccc(Nc3ccccc3)cc2)c(O)c1
7	-0.2	O=C(O)/C=C/c1ccc(C(F)(F)F)cc1
19	.	CCc1ccc(NC(=O)Cn2c(=O)cc(C)c3c(C)nn(C)c32)cc1
-2	2.2	O=C(c1ccccc1)c1cc2ccc(O)cc2oc1=O
.	2.0&0.5	C[N+]12CCC(CC1)C(OC(=O)C(O)(c1ccccc1)c1ccccc1)C2 (stereo unspecified)
12	.	COc1ccc(-c2noc(N(C)CC(=O)N3CCN(c4cccc(Cl)c4)CC3)n2)cc1
-19	-3.0	CCc1ccc(OCC(=O)c2ccc(O)c(CN(C)C)c2O)cc1
-6	.	COc1ccc(CCNS(=O)(=O)c2ccc3c(c2)CCN3C(=O)C2CCC2)cc1OC
1	-2.2	COC(=O)c1cc(NS(=O)(=O)c2ccccc2)cc(C(=O)OC)c1
.	2.4	CCOc1cc2c(c([N+](=O)[O-])c1)NC(c1cccc([N+](=O)[O-])c1)C1CC=CC21 (stereo unspecified)
0	.	Clc1nc2c(Cl)cccc2s1
6	3.4	Cc1ccc(CNCc2ccccc2)s1
13	-2.3	COC(=O)c1ccc(-c2ccc(C(=O)N3CCCN(C)CC3)cc2)cc1
19	3.0	c1ccc(-c2nnc(SCC3COc4ccccc4O3)nc2-c2ccccc2)cc1 (stereo unspecified)
18	.	Cn1c(=O)c2c(SCc3cccc(F)c3)nc(-c3ccc(F)cc3)nc2n(C)c1=O
6	.	CN(C)C1(CNC(=O)Nc2ccccc2)CCCCC1
3	.	CC(=O)NN=C(C1CC1)C1CC1
13	-2.2	O=C(CSc1nnnn1-c1ccccc1F)N1c2ccccc2Sc2ccc(Cl)cc21
5	3.0	CCc1nnc(NC(=O)c2ccc(S(=O)(=O)N3CCCC3)cc2)o1
4	-0.2	CN(C)/C=N/c1nnc(N2CCN(c3cccc(Cl)c3)CC2)s1
4	.	CN1CCN(C(=O)CN2C(=O)/C(=C/c3ccccc3)SC2=S)CC1
-15	.	COc1ccc(-n2ncc(C(=O)Nc3ccccn3)c2C2CCN(C(=O)OC(C)(C)C)CC2)cc1
-6	.	O=C(Nc1ccnn1C1CCCCC1)c1cccnc1Nc1ccccc1F
-8	.	Cc1nn(-c2ccc(F)cc2)c2sc(C(=O)N(Cc3ccco3)Cc3cccs3)cc12
7	.	CN1CCN(C(=O)c2cc3ccccc3nc2Cl)CC1
-24	.	C=Cc1ccc(CN2C(=O)N(c3ccccc3)C3CS(=O)(=O)CC32)cc1 (stereo unspecified)
.	3.1	O=c1c2ccccc2c(-c2ccc(F)cc2)nn1-c1ccccc1
9	2.2	O=S(=O)(Cc1ccccc1Cl)NCc1cccnc1
2	.	Cc1cc2ccccc2n1-c1ccc(C(=O)N2CCC(C(=O)NC3CC3)CC2)s1
-7	.	Nc1nc(CCC(=O)OCC(=O)Nc2ccc(F)cc2)nc(Nc2ccccc2)n1
10	.	O=C(COC(=O)CCc1ccc(S(=O)(=O)N2CCOCC2)cc1)Nc1ccccc1OC(F)F
11	.	Cc1nnc(SCC(=O)N2CCc3ccccc3C2)s1
15	0.8	COc1ccc(C)cc1NC(=O)CN(C)S(=O)(=O)c1ccc(Br)s1
0	1.0	O=C(CN1C2=NCCN2c2ccccc21)c1ccc(O)cc1
-12	.	CCOC(=O)c1cc(C)sc1N1C(=O)C=CC1=O
7	-0.9	CSc1nsc(SCc2ccc(C(=O)Nc3ccc(Cl)cc3)cc2)n1
-2	-1.1	COc1ccc2c(c1)cc1n2CCN2CCN=C12
15	.	COC(=O)Cn1ncc(N2C3CC(CC(C)(C)C3)C2C)c(Cl)c1=O (stereo unspecified)
.	-5.9	CCOc1ccc(N(CC(=O)Nc2ccc3c(c2)OCO3)S(=O)(=O)c2ccc(SC)cc2)cc1
5	.	COc1ccc(C2(CNC(=O)CCOc3ccccc3)CCOCC2)cc1
.	1.5&-0.2	Brc1ccc(-c2ccn[nH]2)s1
0	0.7	COC(=O)c1cccc(NS(=O)(=O)c2ccc(OC)c(Cl)c2)c1C
10	.	CN(Cc1ccc(OC(F)F)cc1)S(=O)(=O)c1ccccc1C#N
6	.	CC1(C)CSC(=NCc2ccccc2)N1C(=O)CN1C(=O)C2C3C=CC(C3)C2C1=O (stereo unspecified)
-1	-2.2	CN(C)CCN(Cc1ccccc1)CC1CC2C=CC1C2 (stereo unspecified)
21	.	O=C(O)c1cccc(NS(=O)(=O)c2ccc3c(c2)OCCCO3)c1
5	.	Cc1ccccc1-n1nc2c(c1NC(=O)c1ccc(S(=O)(=O)N3CCOCC3)cc1)CS(=O)C2 (stereo unspecified)
20	-0.9	CCn1c(CNC(=O)c2ccccc2F)nnc1SCC(=O)NC1CCCCC1C (stereo unspecified)
6	.	O=C(c1ccc(N2CCCC2=O)cc1)N1CCN(c2ccccc2)CC1
4	-0.9	N#Cc1c(NC(=O)C(F)(F)F)sc2c1CCCC2
.	-0.6	N#CCc1ccc(C(=O)c2cccs2)s1
10	1.1	Cc1cccc(OCCCC(=O)O)c1
7	.	CCCc1c(C(=O)Nc2ccc3c(c2)OCCO3)cnn1-c1ccccc1

The list goes on:
Sa helicase inh	MgrA-DNA mod	SMILES
.	4.1	O=C(N/C=C/c1ccco1)Nc1cc(C(F)(F)F)cc(C(F)(F)F)c1
.	3.1	O=C(Nc1ccc2c(c1)OCCO2)c1cc(-c2ccc(Cl)cc2)oc1C(F)(F)F
-11	.	COc1ccc(OC(=O)C2CCN(c3ccc(C(F)(F)F)cn3)CC2)cc1
-15	.	CCCNC(=O)C(N)Cc1c[nH]c2ccccc12 (stereo unspecified)
13	.	COc1ccc(CNCc2cccs2)cc1Cn1ccnc1
-1	3.7	CC1NC(=O)NC2NC(=O)NC(C)C12 (stereo unspecified)
8	.	O=C(Oc1cc(=O)oc2c1c(=O)n1c3c(cccc23)CC1)c1ccco1
5	.	CNCc1ccc(Br)cc1
8	-6.1	Cc1nc(N2CCCCC2)c(C#N)c2c1COC(C)(C)C2
-10	.	CC(C)N(Cc1nc2ccccc2c(=O)[nH]1)C(=O)c1cc(C2CC2)nn1-c1ccccc1
.	-0.5	O=C(c1ccccc1Cl)N1CCC(n2cccc2)CC1
6	.	O=C(NCc1ccncc1)c1cccc(Cn2cc(Br)cn2)c1
-3	-3.0	CCc1ccccc1-n1nnc(C(=O)NCc2ccc3c(c2)OCO3)c1N
-15	.	CCOc1ccc(/C=N/OCC(=O)Nc2cc(C)on2)cc1
11	0.5	COc1ccc(C)cc1S(=O)(=O)NCc1ccccc1

Not a retest: an excerpt of the list.
Sa helicase inh	MgrA-DNA mod	SMILES
4	-0.9	N#Cc1c(NC(=O)C(F)(F)F)sc2c1CCCC2
.	-0.6	N#CCc1ccc(C(=O)c2cccs2)s1
10	1.1	Cc1cccc(OCCCC(=O)O)c1
7	.	CCCc1c(C(=O)Nc2ccc3c(c2)OCCO3)cnn1-c1ccccc1
.	4.1	O=C(N/C=C/c1ccco1)Nc1cc(C(F)(F)F)cc(C(F)(F)F)c1
.	3.1	O=C(Nc1ccc2c(c1)OCCO2)c1cc(-c2ccc(Cl)cc2)oc1C(F)(F)F
-11	.	COc1ccc(OC(=O)C2CCN(c3ccc(C(F)(F)F)cn3)CC2)cc1
-15	.	CCCNC(=O)C(N)Cc1c[nH]c2ccccc12 (stereo unspecified)
13	.	COc1ccc(CNCc2cccs2)cc1Cn1ccnc1
-1	3.7	CC1NC(=O)NC2NC(=O)NC(C)C12 (stereo unspecified)
8	.	O=C(Oc1cc(=O)oc2c1c(=O)n1c3c(cccc23)CC1)c1ccco1
5	.	CNCc1ccc(Br)cc1
8	-6.1	Cc1nc(N2CCCCC2)c(C#N)c2c1COC(C)(C)C2
-10	.	CC(C)N(Cc1nc2ccccc2c(=O)[nH]1)C(=O)c1cc(C2CC2)nn1-c1ccccc1
.	-0.5	O=C(c1ccccc1Cl)N1CCC(n2cccc2)CC1
6	.	O=C(NCc1ccncc1)c1cccc(Cn2cc(Br)cn2)c1

From PubChem
